Six1-Eya2 inh: Six1/Eya2 interaction inhibition. Q15475+O00167. AlphaScreen GST-Six1/His-Eya2 binding, biochemical; active compounds read low; control for the full effect not named in the record. activity change, % (test concentration not listed). 0.56% of 360,000 active; in the data active = activity change below about -65%; inconclusive = about -30% to -65%; inactive = above about -30%; also: % is scaled to controls: 0 for no effect and ±100 for the full control effect
Target sequence (O00167 whole entry, looked up): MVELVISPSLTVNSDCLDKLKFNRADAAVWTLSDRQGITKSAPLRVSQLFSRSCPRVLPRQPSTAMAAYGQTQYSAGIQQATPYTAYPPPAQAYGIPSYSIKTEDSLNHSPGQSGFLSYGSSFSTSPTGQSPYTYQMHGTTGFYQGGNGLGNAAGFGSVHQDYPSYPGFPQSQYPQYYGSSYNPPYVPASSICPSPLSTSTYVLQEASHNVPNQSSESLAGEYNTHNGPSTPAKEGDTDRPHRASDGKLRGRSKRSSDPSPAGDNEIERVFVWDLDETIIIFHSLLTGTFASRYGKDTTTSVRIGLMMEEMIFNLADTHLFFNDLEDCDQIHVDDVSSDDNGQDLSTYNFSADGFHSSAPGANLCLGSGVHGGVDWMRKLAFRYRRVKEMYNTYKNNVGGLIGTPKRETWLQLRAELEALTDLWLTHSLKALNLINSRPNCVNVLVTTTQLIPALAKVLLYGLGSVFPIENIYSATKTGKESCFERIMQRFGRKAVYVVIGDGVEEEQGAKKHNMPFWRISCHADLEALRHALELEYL
Target sequence (Q15475 whole entry, looked up): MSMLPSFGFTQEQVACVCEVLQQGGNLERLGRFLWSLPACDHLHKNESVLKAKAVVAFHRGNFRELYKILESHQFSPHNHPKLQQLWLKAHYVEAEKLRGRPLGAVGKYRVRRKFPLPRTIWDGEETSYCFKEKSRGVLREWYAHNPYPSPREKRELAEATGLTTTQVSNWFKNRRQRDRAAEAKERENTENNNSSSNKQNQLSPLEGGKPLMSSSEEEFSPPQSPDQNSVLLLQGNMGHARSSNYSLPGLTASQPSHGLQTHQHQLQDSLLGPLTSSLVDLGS
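Compounds are tested against tagged Six1 and Eya2 proteins bridged by glutathione donor and nickel acceptor beads; after a one-hour incubation at 37 °C without light, AlphaScreen emission is recorded.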
D2 ag: human D2 receptor agonism in beta-arrestin assay; DiscoveRx PathHunter D2 beta-arrestin, luminescence, 90 min; 100% = 57 uM dopamine signal; P14416; activation, % (no concentration beside the values); 0.084% of 360,000 active; in the data active = activation above about 40%; inconclusive = about 15% to 40%; inactive = below about 15%; also: compound concentration not given in the record; the text of the record calls up to 30% inactive
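Agonist mode: compounds alone added to overnight-plated D2 PathHunter cells for 90 min at 37 C, with 57 uM final dopamine (EC100) defining full response. Beta-arrestin recruitment detected by chemiluminescent reagent, read after 1 h at ambient temperature.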
gsp agonist: gsp mutant agonism; gsp mutant cells, cAMP HTRF, 30 min; control for the full effect not named in the record; Potency, µM (series often up to 76.9 µM), inactives show top-dose activation (cAMP increase), hits mostly activators; 0.13% of 340,000 active; active = well fitted activation curve with a large enough effect; inconclusive = small, poorly fitted or top-dose-only effect, or another doubt; inactive = no such curve, though single readings can be large or run the other way; cell line not stated here;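 also: phosphodiesterase inhibitor Ro 20-1724 added with compounds to block cAMP breakdown; potency is read from the fitted curve at half-maximal effect; nearly all actives have a fitted effect of over 60% in size; about a fifth of the inactives were tested at one dose only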
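Cells stably selected in G418 were plated at 2000/well, grown 16-24 hr, then given compounds in DMSO with the PDE inhibitor […] (300 uM solution added) for 30 min at 37C; cAMP was read by HTRF.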
gsp antagonist: antagonizes gsp, the McCune-Albright syndrome mutation. Potency, µM (doses to about 76.9 µM), inactives show top-dose activity change, negative = inhibition, usual class: inhibitors. gsp-mutant cells, cAMP HTRF, 30 min; control for the full effect not named in the record. 0.4% of 340,000 active; active = falling curve of any shape with a large fitted effect; inconclusive = falling curve, mostly with a smaller effect; inactive = flat or rising curve; cell line not stated here;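 also: intracellular cAMP measured with PDE inhibitor Ro 20-1724 present during compound exposure; potency is read from the fitted curve at half-maximal effect; % is scaled to controls: 0 for no effect and ±100 for the full control effect; nearly all actives have a fitted effect of over 65% in size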
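G418-selected cells were plated in DMEM/10% FBS for 16-24 h at 37C, then treated with compounds plus the PDE inhibitor […] (300 uM solution added) for 30 min at 37C. Intracellular cAMP was measured by HTRF after 30 min lysis at room temperature.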
CtBP-E1A inh: CtBP/E1A binding inhibition. AlphaScreen GST-E1A/His-CtBP binding, 1536-well; active compounds read low; control for the full effect not named in the record. activity change, % (no concentration beside the values). 0.49% of 340,000 active; in the data active means activity change below about -65%; inconclusive means about -30% to -65%; inactive means above about -30%; also: % is scaled to controls: 0 for no effect and ±100 for the full control effect
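AlphaScreen with 125 nM GST-E1A and 125 nM His-CtBP (5X stocks) in Tris pH 8.0, 300 mM NaCl, BSA, Tween 20, TCEP. Compounds preincubated 2 h at 37 deg C, then glutathione donor/nickel acceptor beads added for 1 h at 37 deg C in dark.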
D2 PAM: positive allosteric modulators of human D2 dopamine receptor; AID 624464; DiscoveRx D2 beta-arrestin cells, luminescence, 90 min; 100% = 57 uM dopamine signal; 0.23% of 360,000 active; potentiation, % (test concentration not listed); P14416; active = potentiation of 50% or more; inconclusive = 30% to 50%; inactive = 30% or less;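 also: compound concentration not given in the record; tested on top of an EC20 dose of dopamine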
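PathHunter beta-arrestin assay in DiscoveRx D2 cells. Compounds were added with an EC20 of dopamine (50 nM final) for 90 min at 37 deg C. Luminescence was read 1 h after detection reagent, with 57 uM dopamine as the EC100 control.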
Numbers without * were called inactive; ? = inconclusive; . = no result given; [ ] = remark or other dose.

Six1-Eya2 inh	D2 ag	gsp agonist	gsp antagonist	CtBP-E1A inh	Structure	D2 PAM
0	-1.1	?	-2%	-1	NS(=O)(=O)c1ccc(CCNC(=O)C2CCCCC2)cc1	-2
3	-2.5	11%[15.4 µM]	8%	1	CC1CCCCC12NC(=O)N(CC(=O)NCc1ccccc1Cl)C2=O (stereo not drawn)	-2
-4	4.1	?	.	2	CC12CCC3c4ccc(O)c([N+](=O)[O-])c4CCC3C1CCC2=O (stereo not drawn)	-9
-1	-0.4	?	-16%	-13	Cc1ccc(NC(=O)Cc2ccc3c(c2)CCCC3)cc1C	-8
0	-2.1	2%	5%	5	CCNC(=O)COc1ccc(-c2ccccc2)cc1	-4
-5	-2.3	?	2%	-17	COc1ccc(-c2[nH]c(-c3ccc(F)cc3)nc2SCC(=O)NCc2ccco2)cc1OC	-9
1	1.4	2%	2%	-12	COc1ccccc1NC(=O)Nc1ccc2c(c1)nnn2C	-26
-2	-2.0	11%[15.4 µM]	-20%	-2	COc1ccc2cc(C(C)C(=O)N3CCC(C)CC3)ccc2c1 (stereo not drawn)	-7
-25	-2.6	-1%	3%	-7	CC1CC(C)CN(CC(=O)N2CCCc3c2c(=O)oc2ccc(OCc4ccccc4)cc32)C1 (stereo not drawn)	-26
2	4.4	2%	-10%	4	COc1ccc(CC(=O)N2CCN(c3ccccc3F)CC2)cc1OC	-1
1	0.2	-2%	1%	2	Cc1nnc(SCC(=O)Nc2ccccc2)n1CCc1ccccc1	3
-15	?	1%	8%	-12	CCCOc1ccc(NC(=O)CC2C(=O)N(CC)C(=S)N2CCCN2CCN(Cc3ccccc3)CC2)cc1 (stereo not drawn)	-16
-4	2.7	-93%[inhibitor]	.	-4	Cc1ccc(CNC(=O)c2ccc(S(=O)(=O)N3CCCC3)cc2)cc1	-9
-8	-3.8	22%	-10%	-4	O=C(/C=C/c1ccccc1Cl)NCc1ccccc1	-2
-18	-5.4	-9%	-20%	-10	Cc1ccc(/C=C(/NC(=O)c2ccccc2)C(=O)NCCc2c[nH]c3ccccc23)o1	-20
-2	-1.9	-6%	-3%	4	CCOC(=O)Nc1ccc2c(c1)N(C(=O)CCN1CCN3CCCC3C1)c1ccccc1CC2 (stereo not drawn)	-13
2	0.3	-24%	3%	.	COc1cc(S(=O)(=O)N2CCOCC2)cc(C(=O)OCC(=O)NC2CCCCC2)c1OC	-1
2	0.6	-15%	-5%	0	CC1CCC2C(=O)N(c3cccc(C(=O)Nc4ccc(F)cc4)c3)C(=O)C2C1 (stereo not drawn)	-16
-2	1.7	?	5%	-4	CC(O)[C@H](NC(=O)C1(c2ccccc2)CCN(C(=O)OC(C)(C)C)CC1)C(=O)O (stereo partly drawn)	0
-15	-1.9	14%[15.4 µM]	2%	-16	O=C(CS(=O)(=O)Cc1ccccc1)Nc1ccc2c(c1)OCO2	-10
-1	4.5	5%	4%	-1	Nc1cc(Cl)cc2c1-c1ccc(Cl)cc1C2O (stereo not drawn)	4
2	-2.9	-71%[inhibitor]	.	1	COc1ccccc1N1CCN(S(=O)(=O)CCNC(=O)c2ccco2)CC1	-24
-2	-9.5	-32%[inhibitor]	.	-19	O=C(OCc1cn([C@@H]2C[C@H](c3ccc(Cl)cc3)N(Cc3cccs3)C[C@H]2O)nn1)c1ccccc1	-2
3	-0.4	0%	0%	3	COc1ccccc1-c1cc(C2CC2)nc(N)c1C#N	6
-1	-6.0	15%[15.4 µM]	10%	-17	CC(=O)Nc1nc(C(=O)O)cs1	-3
4	0.4	12%[15.4 µM]	1%	0	Cc1ccn(CCC(=O)N2CCCC(CCC(=O)N3CCN(c4ccccn4)CC3)C2)n1 (stereo not drawn)	-5
-6	11	6%	-3%	.	O=C(O)C1Nc2ccc(Br)cc2C2C=CCC12 (stereo not drawn)	9
-2	-1.3	-13%	-9%	-4	c1ccc(-n2nnc3c(N4CCOCC4)ncnc32)cc1	-6
0	-1.3	-7%	-2%	1	Cn1c(=O)c2c(nc(CN3CCN(c4ccccc4)CC3)n2Cc2ccccc2Cl)n(C)c1=O	-8
0	9.9	17%	1%	13	O=C(N/N=C/c1ccc(OC(=O)c2cccs2)cc1)c1ccc(F)cc1	-4

Overlap with the part before: 6 entries, then new ones.
Six1-Eya2 inh	D2 ag	gsp agonist	gsp antagonist	CtBP-E1A inh	Structure	D2 PAM
-1	-6.0	15%[15.4 µM]	10%	-17	CC(=O)Nc1nc(C(=O)O)cs1	-3
4	0.4	12%[15.4 µM]	1%	0	Cc1ccn(CCC(=O)N2CCCC(CCC(=O)N3CCN(c4ccccn4)CC3)C2)n1 (stereo not drawn)	-5
-6	11	6%	-3%	.	O=C(O)C1Nc2ccc(Br)cc2C2C=CCC12 (stereo not drawn)	9
-2	-1.3	-13%	-9%	-4	c1ccc(-n2nnc3c(N4CCOCC4)ncnc32)cc1	-6
0	-1.3	-7%	-2%	1	Cn1c(=O)c2c(nc(CN3CCN(c4ccccc4)CC3)n2Cc2ccccc2Cl)n(C)c1=O	-8
0	9.9	17%	1%	13	O=C(N/N=C/c1ccc(OC(=O)c2cccs2)cc1)c1ccc(F)cc1	-4
2	1.2	-29%	-7%	4	COC(=O)CSc1nnc(-c2cccnc2)n1-c1cc(OC)cc(OC)c1	-1
4	-2.9	-33%	-7%	6	Cn1nnnc1SCC(=O)Nc1cc(C(F)(F)F)ccc1N1CCOCC1	-1
0	0.2	4%	6%	0	Cc1ccc(OCC(=O)Nc2ccc(CN3CCOCC3)cc2)cc1	-14
7	-3.4	7%[15.4 µM]	7%	0	c1ccc(-c2nnsc2-c2ncc[nH]2)cc1	-4
-6	-2.8	.	.	-1	OC[C@@H]1CN(Cc2cccs2)C[C@H](n2cnc3c(NCc4ccco4)ncnc32)O1	-2
-21	4.5	-1%	4%	.	O=C(CCS(=O)(=O)c1ccc(Br)cc1)NCCC1=CCCCC1	-6
-8	1.7	-3%	-5%	4	Nc1ccc(C(=O)Nc2ccc(OC(F)(F)C(F)F)c(NC(=O)c3ccc(N)cc3)c2)cc1	6
8	6.8	?	0%	.	Fc1ccc(/C=N/Nc2nn[nH]n2)cc1	-10
-7	-1.4	-28%[15.4 µM]	8%	8	CC(=O)NCC(=O)N1CCCC(C(=O)c2ccc(-c3ccccc3)c(F)c2)C1 (stereo not drawn)	-6
3	-0.7	10%	5%	-5	CC(=O)Nc1ccc2c(c1)C(=O)N(c1ccc(C)cc1)C2=O	-5
8	-1.8	4%	9%	-24	O=C(NCCN1CCOCC1)/C(=C\c1ccccc1Cl)NC(=O)c1ccccc1	-6
0	4.2	2%	-18%	12	Cc1cc(C)c2nc(N3CCC(C(=O)N4CCCC4)CC3)sc2c1	3
3	-0.3	-40%[inhibitor]	4%	-4	CCCOc1ccc(C(=O)NCCC(=O)NCCCC(=O)OCC)cc1	-5
2	0.4	30%	.	6	C[C@H]1CN([C@@H](C)CO)C(=O)CCCn2cc(nn2)CO[C@@H]1CN(C)S(=O)(=O)c1ccc(Cl)cc1	.
5	0.6	.	4%	-20	CCCCN1C(=S)NC[C@@H]1c1ccccc1	-2
-22	-2.7	21%	1%	-19	CC/C(=N\Nc1nncc2ccccc12)c1ccc(F)cc1	-10
6	4.1	8%[15.4 µM]	10%	8	CC(=O)NCCNC(=O)c1ccc(NC2=NC3CS(=O)(=O)CC3S2)cc1 (stereo not drawn)	2
-15	-2.3	3%	?	-30	COc1ccc(N2CCN(C(=O)c3cc4c(s3)-c3ccccc3S(=O)(=O)C4)CC2)cc1	17
21	-1.2	-20%[15.4 µM]	8%	-16	CCCCN=CC1=C(O)CC(c2ccccc2)CC1=O (stereo not drawn)	-18
-7	-2.6	6%[15.4 µM]	-23%	2	C/C(=N/NC(=O)c1sc(NS(=O)(=O)c2ccccc2)nc1C)c1sc(N)nc1C	-4
6	3.6	-10%	-1%	3	CCC(CO)N=C1CC(C)(C)CC(=O)/C1=C(/O)CCCN1C(=O)c2ccccc2C1=O (stereo not drawn)	0
0	-0.1	8%	1%	-6	CN1CCN(Cc2c(O)c(Cl)cc3c(-c4ccccc4)cc(=O)oc23)CC1	14
-3	-0.4	?	-17%	-5	Cc1ccc(NC(=O)c2c(C)nc3sc(C(=O)NC4CCCC4)c(N)c3c2-c2ccco2)c(C)c1	-5
-15	4.3	-4%[15.4 µM]	-10%	4	COc1ccc(CCNC(=O)c2ccc([N+](=O)[O-])cc2Cl)cc1OC	3
4	6.3	18%	-1%	7	COC(=O)c1ccccc1NC(=O)c1sc(Cl)nc1C	-2
-1	-1.9	-3%	3%	8	Cc1ccc(SCc2ccc(C(=O)NCc3ccncc3)cc2)cc1	0
-8	2.6	-9%[15.4 µM]	2%	7	CCOc1ccc(NC(=O)CSc2nc(=O)n(Cc3ccccn3)c3c2CCC3)cc1	-20
-10	0.8	-39%[inhibitor]	-2%	.	C/C(=N\N1C(=O)c2ccccc2NC1c1ccco1)c1ccccc1O (stereo not drawn)	-13
2	-2.6	.	-7%	2	O=C(Cc1ccc(NC(=O)C2CCCN(C(=O)C3CCCC3)C2)cc1)Nc1cccc(C(=O)N2CCCCC2)c1 (stereo not drawn)	.
1	-2.7	1%	-8%	-2	CN1C(=O)c2oc3ccccc3c(=O)c2C1c1ccncc1 (stereo not drawn)	-19

Next section.
Six1-Eya2 inh	D2 ag	gsp agonist	gsp antagonist	CtBP-E1A inh	Structure	D2 PAM
2	-0.1	-14%	-4%	6	CN1CCN(C2=CC(=O)OC23CCCCC3)CC1	19
?	0.2	0%	-22%	.	N=C1/C(=C\c2ccc(OC(=O)c3ccc(F)cc3)cc2)C(=O)N=C2SC(N3CCOCC3)=NN12	-11
13	-0.8	7%[15.4 µM]	?	1	Cc1ccccc1CC1(CO)CCCN(C(=O)CCC(=O)c2ccccc2)C1 (stereo not drawn)	-10
7	0.4	-5%[15.4 µM]	-4%	10	O=C(N/N=C/c1cccnc1)C1CCCCC1	-6
2	-2.8	-19%	4%	2	COc1cccc(C(C(=O)NC(C)(C)C)N(C(=O)CCC(=O)Nc2cc(C)on2)C(C)C)c1OC (stereo not drawn)	4
2	-0.4	7%	-7%	-1	CCN(CC(=O)NCc1cccs1)C(=O)c1ccc(S(=O)(=O)Nc2cccc(C)c2C)cc1	7
?	-2.1	3%	-11%	?	COc1cccc(/C=N/NC(=O)c2cc3cc([N+](=O)[O-])ccc3s2)c1O	-4
4	-2.7	-18%	-4%	-2	O=C(NCc1ccccc1)NCC12CC3CC(CC(C3)C1)C2	-4
7	2.9	10%	-8%	1	COc1ccc(NC(=S)N2CCN(c3ncccn3)CC2)cc1	2
-1	-3.0	21%	8%	7	CC(=O)Nc1ccc2c(c1)C(=O)N(C1CCCCC1)C2=O	-5
-1	-1.5	?	-8%	-6	CC(=O)N1CCc2cc(S(=O)(=O)CCC(=O)N(C)Cc3ccco3)ccc21	-8
1	-4.9	-5%[15.4 µM]	-8%	-18	CCc1nn(-c2ccccc2)c(=S)c2ccccc12	3
